Screens as filed in PubChem BioAssay.
BasE inh: inhibitors of Acinetobacter baumannii siderophore enzyme BasE. purified BasE, fluorescence polarization binding displacement. inhibition, % (test concentration not listed). hit rate 0.1% among 84,000;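 active = both replicates above 25% with normal brightness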;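 note: 0% = negative plate control signal and 100% = positive plate control signal; stock transfer was 100 nL into about 30 µL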
KSHV LANA nucl: inhibitors of KSHV LANA binding to nucleosomes; FITC-LANA1-23 / chicken nucleosome fluorescence polarization; hits give low values; z-score (concentration not given with the values); hit rate 0.3% among 51,000; AID 720717;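 active = both repeat wells score below -2 in polarization z-score versus plate sample wells, excluding overly bright wells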;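 note: 100 nL library stock added to about 30 µL; numbers are from one replicate; some results filed as inactive read as strong as hits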
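Material: Purified chicken nucleosomes with FITC-labelled LANA N-terminal peptide (1-23) | Reagent: 50 nM FITC-LANA1-23 probe | Medium: TEN-BT buffer, pH 7.5 | Times: 10–45 min incubation at room temperature | Detection: Fluorescence polarization | Replication: Duplicates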
* marks the source's active call; other numbers are inactive results; . = no result given; & = joins results of further samples.

SMILES | BasE inh | KSHV LANA nucl
CC(=O)NCCN=Cc1sc2ccccc2c1O | 2.1 | -0.358
N#Cc1ccccc1CSc1nnc(COc2ccccc2Cl)n1C1CC1 | 1.5 | .
CN(Cc1ccccc1)Cc1c(O)ccc2c(=O)c(-c3ccccc3)coc12 | 0.6 | -0.674
CCOC(=O)c1sc2nc3n(c(=O)c2c1C)CCCCC3 | 1.2 | -0.291
Nc1ccc2nc(SCCOc3ccccc3)sc2c1 | -1.0 | -0.081
c1ccc(-c2nnc(N3CCOCC3)nc2-c2ccccc2)cc1 | -0.4 | .
OCc1cc(CO)c(O)c(CCc2ccccc2)n1 | 0.8 | 0.332
NC(=S)NN=C1CCCCC1 | 1.4 | 0.036
O=C1c2ccccc2C(Nc2cccc(C(F)(F)F)c2)N1Cc1ccco1 (stereo unspecified) | 1.9 | -0.0695
O=C1CCCc2c1cc(C(=O)Nc1ccc(Cl)cn1)c(=O)n2-c1ccccc1 | 0.4 | 0.511
CCC(CC)c1nnc(NC(=O)CS(=O)(=O)Cc2ccccc2)s1 | -1.4 | 0.208
Cc1cc(C(=O)CSc2ccc(S(=O)(=O)N(C)C)cn2)c(C)n1-c1ncn[nH]1 | 1.3 | .

Going on with the list.
SMILES | BasE inh | KSHV LANA nucl
c1ccc(C(N2CCOCC2)N2CCOCC2)cc1 | 0.1 | 1.12
CN(C)c1oc(-c2ccccc2)nc1S(=O)(=O)c1ccccc1 | 0.6 | .
COc1ccc(NC(=O)C2CC2C)c(OC)c1 (stereo unspecified) | -1.2 | .
O=C(O)c1ccc(C2SCCCS2)cc1 | 0.6 | .
COC(=O)C1=C(C(=O)c2ccccc2)C(c2ccc(C(=O)OC)cc2)n2nnnc2N1 (stereo unspecified) | 2.1 | .
c1ccc2c(c1)CC(N1CCCCC1)c1ccccc1N2 (stereo unspecified) | -1.5 | 0.969
CC(C)CCN1C(=O)c2ccc(C(=O)OCC#N)cc2C1=O | 0.1 | .
O=C(COc1ccccc1)NNc1nc2c(F)cccc2s1 | 1.6 | -1.47
O=C(O)c1ccccc1-c1nnc2c(Cl)cc(C(F)(F)F)cn12 | . | -1.62
COc1ccccc1N1C(=O)C(Cc2ccccc2)N=C1N1CCOCC1 (stereo unspecified) | 1.1 | -0.424
CC(C)(C)CC(=O)NC(C)(C)C | 1.3 | 0.017
CN1CCN(S(=O)(=O)c2cccc(C(=O)N3CCN(C/C=C/c4ccccc4)CC3)c2)CC1 | 0.2 | .

The final six records of the section before lead into the next.
SMILES | BasE inh | KSHV LANA nucl
CC(C)CCN1C(=O)c2ccc(C(=O)OCC#N)cc2C1=O | 0.1 | .
O=C(COc1ccccc1)NNc1nc2c(F)cccc2s1 | 1.6 | -1.47
O=C(O)c1ccccc1-c1nnc2c(Cl)cc(C(F)(F)F)cn12 | . | -1.62
COc1ccccc1N1C(=O)C(Cc2ccccc2)N=C1N1CCOCC1 (stereo unspecified) | 1.1 | -0.424
CC(C)(C)CC(=O)NC(C)(C)C | 1.3 | 0.017
CN1CCN(S(=O)(=O)c2cccc(C(=O)N3CCN(C/C=C/c4ccccc4)CC3)c2)CC1 | 0.2 | .
CCCN1C2=C(C(=O)CCC2)C(c2ccc(O)c(Br)c2)C2=C1CCCC2=O | 2.6 | 0.262
O=S(=O)(Cc1cccc(C(F)(F)F)c1)Cc1nc(-c2ccc(C(F)(F)F)cc2)cs1 | 2.0 | .
CCc1ccccc1NC(=O)CN1CCN(C(=O)CCS(=O)(=O)c2ccc(C)cc2)CC1 | -1.5 | .
O=C(O)Cn1nnc(N2CCCC2)n1 | 0.2 | -0.272
Cc1onc(-c2c(Cl)cccc2Cl)c1NC(=O)NNc1cc(Cl)ccc1Cl | 1.6 | -0.527
Cc1cc(C)n(-c2nc(N(c3ccccc3)c3ccccc3)nc(-n3nc(C)cc3C)n2)n1 | 1.9 | 0.892
C=CCC(C(=O)OC)N1CCOCC1 (stereo unspecified) | -0.8 | -0.781
CCc1nn(CC(=O)NC(C)c2ccc3c(c2)OCCO3)c(=O)c2cc3sc(C)cc3n12 (stereo unspecified) | -3.5 | 0.222
CN(C)CCCNc1nc(-c2cccs2)nc2sc3c(c12)CCCC3 | -0.2 | .
O=C(CSc1nnc(-c2cccnc2)n1C1CC1)c1c[nH]c2ccccc12 | -0.9 | .
CC(C)(O)P(C)(=O)c1ccccc1 (stereo unspecified) | 0.8 | 0.108
Nc1nc(S(=O)(=O)c2ccc(Cl)cc2)c(Cl)s1 | -2.1 | .

(continued)
SMILES | BasE inh | KSHV LANA nucl
Cc1c(N=C2C(=O)Nc3ccccc32)c(=O)n(-c2ccccc2)n1C | -1.3 | 0.133
COc1ccc(OCCN(C)C(=O)c2ccc(-n3cccn3)cc2)cc1 | 3.0 | .
CC(C)N1CCN(c2ncnc3scc(-c4ccccc4)c23)CC1 | . | 0.171
C=CCSc1nnc2n(-c3ccccc3)c(=O)c3c(C)c(C)sc3n12 | 3.3 | .
O=C(CCN1C(=O)c2cccnc2Sc2ccccc21)N1CCCCC1 | 0.8 | -0.0935
COc1cc(C)c(N)cc1C(C)C | -3.3 | -0.454
Cc1ccc(S(=O)(=O)N2CCN(C(=O)CSc3ccccn3)CC2)c(C)c1 | -0.5 | .
COc1cc2c(cc1NC(=O)c1cc(C)oc1C)oc1ccccc12 | 1.6 | .
COc1ccc(OC(=O)N2CCOCC2)cc1 | 10.4 | .
CC1CCCCN1CC(=O)N1CCN(C(=O)CN2CCCCC2C)CC1 (stereo unspecified) | 1.4 | -1.57
COc1ccccc1NS(=O)(=O)c1cccc(C(=O)Nn2cnnc2)c1 | 0.7 | .
CCN(CC)C(=O)c1ccc(O)c(OC)c1 | -0.3 | 0.641&-0.47

Remaining list, next part
SMILES | BasE inh | KSHV LANA nucl
CC(=O)Nc1ccc(/C=N/NC(=S)NC(C)C)cc1 | 1.2 | .
CC(=O)N(c1ccc2oc(=O)sc2c1)S(=O)(=O)c1cccs1 | -0.8 | 0.102
CC(C)N(CC(N)=O)C(=O)c1cc2ccccc2o1 | 1.1 | .
N/C(=N\c1nc2ccccc2o1)NC(=O)c1ccccc1 | 3.5 | 0.02
O=C(Cc1cccs1)NCC1CCCCC1 | 0.4 | .
O=C(CCc1ccccc1)Nc1ccon1 | -1.9 | 0.362
CCOC(=O)c1cnc2c(C(F)(F)F)cccc2c1Cl | -3.5 | -0.766
CCC(C)(C)NC(=S)Nc1cccc(OC)c1 | 3.4 | .
OC(CN1CCN(Cc2ccccc2)CC1)C(F)(F)F (stereo unspecified) | . | -0.026
CN1CCN(CCCN2c3ccccc3Sc3ccc(Cl)cc32)CC1 | -0.9&-1.8 | 1.23&0.266&-0.014&0.395
Cc1ccc(Oc2ncccc2NC(=O)C(=S)NCc2ccccc2)c2c1CCC2 | -2.0 | .
CCOc1ccccc1-n1nnnc1SC(C)C(=O)OC (stereo unspecified) | -0.1 | .

The listing continues.
SMILES | BasE inh | KSHV LANA nucl
O=S(=O)(NCCn1ccc2ccccc21)c1ccc(Cl)cc1 | -2.1 | -0.541
C=CC#CC1(O)CC(C)[N+](C)(C)CC1C (stereo unspecified) | 5.0 | -0.637
Cc1ccc(CNC(=O)Nc2cccc(Cl)c2)n1C | -2.9 | 0.834
Cc1ccc(S(=O)(=O)c2cnc3ccccc3n2)cc1 | . | -0.462
CCCC(=O)Nc1ncnc2c1ncn2[C@@H]1O[C@@H]2COP(=O)(O)O[C@@H]2C1OC(=O)CCC (stereo partly specified) | 2.3 | -1.03
O=C(Nc1cccc(C(=O)O)c1)/C(=C\c1ccco1)NC(=O)c1ccc(Br)cc1 | 0.2 | -0.777
NC(=O)NCc1ccccn1 | 1.6 | -0.0315
CN1CCN(CCNC(=O)c2ccc(Cn3c(SCc4ccccc4)nc4cccnc43)cc2)CC1 | -6.9 | 2.38
Cn1c(=O)c2c(ncn2CCNC2=NCCC2)n(C)c1=O | 1.3 | .
NS(=O)(=O)c1ccc2nc(NC(=O)c3cccs3)sc2c1 | 0.1 | .
CCCNCC(O)COc1ccccc1C(=O)CCc1ccccc1 (stereo unspecified) | -2.3&0.7&-3.8 | 0.384&0.57&0.536&-0.242&-0.273
CCOC(=O)c1ccc(-n2nc(C)c(C(=O)OCC)c2C)cc1 | 0.5 | -0.39

Later entries.
SMILES | BasE inh | KSHV LANA nucl
Brc1cc2c(cc1CSc1nc3ccccc3o1)OCCO2 | 2.0 | .
CNC(=O)CCCc1nc(-c2ccccc2Cl)no1 | 0.6 | -0.594
CC(OC(=O)c1oc2ccccc2c1COc1ccccc1)C(N)=O (stereo unspecified) | 0.0 | .
Cc1ccc(N2C(=O)CC3(CCCC3)C2=O)cc1 | -0.4 | .
O=C(Nc1ccc(S(=O)(=O)C(F)F)cc1)c1ccccc1 | 0.4 | .
CC1Oc2ccccc2C=C1/C=C/C(=O)O (stereo unspecified) | 1.7 | .
O=C(COc1ncnc2c(Cl)cc(Cl)cc12)c1ccc[nH]1 | 0.3 | .
Cc1ccc(COc2coc(CO)cc2=O)cc1 | . | -0.29
Cn1cc(Br)c(N2C(=O)C=CC2=O)n1 | 3.5 | .
CC1(C)C=Cc2c(nc3ccccc3c2N)C1 | -3.2 | 0.408
O=C(O)c1ccc(CNc2ccccc2)cc1 | 3.7 | 0.542
CNCC[C@@H](Oc1ccccc1C)c1ccccc1 | . | 0.372

Next section:
SMILES | BasE inh | KSHV LANA nucl
CCCCS(=O)(=O)NNc1cc(C(F)(F)F)ccc1Cl | 0.4 | .
O=C(NNc1ccccc1)c1cnn2c(C(F)(F)F)cc(C(F)(F)F)nc12 | 4.0 | -0.685
Cc1ccc(C)n1-c1ccc(C(=O)OC2CCCCC2=O)cc1 (stereo unspecified) | -0.2 | .
O=C(Cn1nnc(-c2ccc(Cl)cc2)n1)NCCCN1CCOCC1 | -0.8 | 0.731
Cc1[nH]c2ccccc2c1N=CN(C)C | 2.0 | .
CN(CC(=O)N1CCN(Cc2ccc3c(c2)OCO3)CC1)S(=O)(=O)c1cc(Cl)ccc1Cl | 0.7 | -0.597
Cc1cc(C)c2c(N)c(S(=O)Cc3ccc(Cl)cc3)sc2n1 (stereo unspecified) | 0.2 | .
S=c1[nH]n(-c2ccc(Cl)cc2)c(=S)s1 | 0.4&0.3 | .
CCCCCCCC/C=C\CCCCCCCC(N)=O | -1.6 | -0.514
Cc1ccc2nc(-c3cc4ccccc4o3)cc(C(=O)O)c2c1 | 1.3 | -0.374
COc1ccccc1N=P12CN3CN(CN(C3)C1)C2 | 0.1 | .
Cc1ccc(N2CCN(c3ccc(C)cc3)C2c2ccc(C)o2)cc1 | 0.3 | -0.499

More records.
SMILES | BasE inh | KSHV LANA nucl
CC(C)(C)NC(=O)/C(C#N)=C/c1ccc(OC(F)F)cc1 | 2.2 | .
O=S(=O)(c1ccc2c(c1)OCCO2)N1c2cccc3cccc(c23)S1(=O)=O | -1.5 | .
Brc1ccc(C2=Nn3c(Cn4nnc5ccccc54)nnc3SC2)cc1 | -2.3 | .
CCOc1ccccc1OCC(=O)NC(C)c1ccccc1 (stereo unspecified) | 3.7 | 0.0565
O=C(O)C(c1ccccc1)n1cnnn1 (stereo unspecified) | 2.8 | 0.307
O=C(/C=C/c1ccc(F)c(Cl)c1)N1CCN(C(=O)C2CCCO2)CC1 (stereo unspecified) | 0.5 | .
CCN(CC)S(=O)(=O)c1cccc(C(=O)N2CCc3ccccc32)c1 | 3.4 | .
O=C(NCc1cccc(C(F)(F)F)c1)c1ccc(S(=O)(=O)NCc2ccco2)cc1 | 1.0 | .
Cc1cc(C)cc(N2C(=S)N(c3ccccc3)C3CS(=O)(=O)CC32)c1 (stereo unspecified) | 0.2 | -0.211
COc1ccc(-c2csc3ncnc(N4CCC5(CC4)OCCO5)c23)cc1 | 1.6 | -0.604
CCOC(=O)/C(C#N)=C\C1=C(N2CCCC2)CC(C)(C)OC1 | 2.8 | -0.072
CC(=O)N/C(=C\c1ccccc1)C(=O)Nc1cccc(C#N)c1 | 0.1 | .

New compounds follow.
SMILES | BasE inh | KSHV LANA nucl
O=S(=O)(c1ccc(OC(F)(F)F)cc1)N1CCC(O)(c2cccc(C(F)(F)F)c2)CC1 | 1.0 | -0.871
CCOC(=O)C1=C(CC)Nc2ccccc2N=C1N=Cc1c(O)[nH]c(=O)[nH]c1=O | -0.7 | .
CCOC(=O)C1=C(CN2CCC(C(=O)OCC)CC2)NC(=O)NC1c1ccccc1 (stereo unspecified) | -0.3 | -0.226
C/C(=N\NC(=O)c1cccnc1)c1ccc(Cl)s1 | 0.3 | .
CN(C)c1ccc(C(=O)c2ccccc2C(=O)O)c(O)c1 | -0.3 | 0.205
NS(=O)(=O)c1cc2c(cc1Cl)NC(C1CC3C=CC1C3)NS2(=O)=O (stereo unspecified) | . | 1.05
COc1ccc(Br)cc1C(=O)O | -1.0 | 0.085
O=C1c2ccccc2-c2nc3ncnn3c(-c3ccc4c(c3)OCO4)c21 | 3.1 | -0.038
O=c1c(O)c(-c2ccc(F)cc2)oc2cc(Cl)ccc12 | -2.1 | 1.91
COc1ccc(Cn2nnnc2CN2CCN(C)CC2)cc1 | -4.0 | 0.542
O=S(=O)(c1ccc(Oc2ncnc3c2oc2ccccc23)cc1)N1CCOCC1 | -2.4 | .
Cc1nc2ncnn2c(N2CCCCC2)c1Cl | 2.9 | -0.281
CC1(C)CC(NCc2cccnc2)=CC(=C(C#N)C#N)C1 | 1.6 | .

The list is partial; the hit share may differ from the screen's.
